Source: PubChem BioAssay
Cruzain inh Det: cruzain (T. cruzi) inhibition with detergent. AID 1478. 200,000 compounds, 0.43% hits. purified cruzain, Z-FR-AMC fluorescence, 0.01% Triton. P25779. Potency, µM, for inactives: max response, negative = inhibition, hits mostly inhibitors; active = well fitted curve in the direction sought with a large enough effect; inconclusive = small, poorly fitted or top-dose-only effect, or another doubt; inactive = no such curve, though single readings can be large; an effect the other way counts as inactive or inconclusive;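 also: plate controls were neutral wells for no effect and buffer without enzyme for full effect; nearly all actives have a fitted effect of over 40% in size; top concentration of the series not given in the record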
Target sequence (P25779 123-467 limits assumed): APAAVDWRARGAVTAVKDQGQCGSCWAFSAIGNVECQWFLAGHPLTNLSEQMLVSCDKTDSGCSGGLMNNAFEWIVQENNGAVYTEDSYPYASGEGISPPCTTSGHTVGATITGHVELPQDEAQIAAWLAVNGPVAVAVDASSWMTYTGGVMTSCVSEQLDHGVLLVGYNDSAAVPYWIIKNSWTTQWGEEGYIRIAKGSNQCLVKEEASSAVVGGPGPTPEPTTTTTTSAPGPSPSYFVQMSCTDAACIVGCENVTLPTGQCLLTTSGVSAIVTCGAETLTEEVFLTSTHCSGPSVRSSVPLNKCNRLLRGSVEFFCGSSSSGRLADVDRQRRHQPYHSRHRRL
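Z-FR-AMC hydrolysis (2 uM substrate) by cruzain (1.5 nM) monitored kinetically at ex 360/em 450 nm after 15 min room-temperature compound exposure; 0.01% Triton X-100, pH 5.5, 5 mM DTT.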
SARS PLpro yeast: SARS-CoV PLP inhibition in yeast; S. cerevisiae expressing SARS-CoV PLpro, growth rescue; control for the full effect not named in the record; Potency, µM (doses to about 32.9 µM), for the others: at the top dose activity, positive = growth rescue; 330,000 compounds, 0.19% hits; also: 0% is about no effect; nearly all actives have a fitted effect of over 55% in size; growth read by luminescence after 48 h
2A StopGo: lowers the luciferase signal of an FMDV 2A StopGo reporter | Potency, µM (series often up to 57.9 µM), for the others: at the highest dose signal change, negative = less light | human cells with a luciferase reporter of 2A StopGo recoding; control for the full effect not named in the record | 410,000 compounds, 1.2% hits; active = well fitted falling curve with a large enough effect; inconclusive = small, poorly fitted or top-dose-only effect; inactive = no such curve, though single readings can be large or run the other way; tested in HEK293T cells; also: % is scaled to controls: 0 for no effect and ±100 for the full control effect; nearly all actives have a fitted effect of over 45% in size; luciferase light after 4 h
NS1 function inh: blocks influenza NS1 protein function | S. cerevisiae slowed by influenza A NS1, growth recovery by OD600 | Potency, µM (top dose mostly 46.1 µM), without a hit: at the highest dose activity, positive = more growth | 270,000 compounds, 0.4% hits | AID 2326; also: actives are rising curves; nearly all actives have a fitted effect of over 50% in size
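Growth recovery, yeast-based: influenza A NS1 expressed in S. cerevisiae causes slow growth, and suppressors are detected by OD600. The parent strain without NS1 is used as positive control.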
RE007 growth inh: less growth of the S. pombe RE007 Vpr strain; S. pombe RE007 Vpr strain, BacTiter-Glo ATP luminescence, 24 h; control for the full effect not named in the record; Potency, µM (top dose mostly 92.2 µM), inactives show at the highest dose activity change, negative = less growth; 360,000 compounds, 0.21% hits; active = well fitted falling curve with a large enough effect; inconclusive = small, poorly fitted or top-dose-only effect; inactive = no such curve, though single readings can be large or run the other way;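 also: % is scaled to controls: 0 for no effect and ±100 for the full control effect; nearly all actives have a fitted effect of over 50% in size; the assay follows cell death caused by Vpr and the record does not say whether a fall means rescue or toxicity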
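Fission yeast strain RE007, carrying one chromosomally integrated HIV-1 vpr copy, was seeded at OD 0.01 in PMG+AL medium with 23 nL pinned compound. After 24 h at 30 °C and 99% humidity, viability was read by BacTiter-Glo luminescence.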
Lassa entry inh: blocks Lassa virus binding to or entry into cells | Lassa virus pseudotype entry inhibition, cell reporter; control for the full effect not named in the record | Potency, µM (series often up to 37.9 µM), inactives show at the highest dose activity change, negative = inhibition, hits mostly inhibitors | 300,000 compounds, 1.2% hits | AID 540256; active means well fitted inhibition curve with a large enough effect; inconclusive means small, poorly fitted or top-dose-only effect, or effect the other way; inactive means flat fitted curve, though single readings scatter; tested in HEK293 cells; also: % is scaled to controls: 0 for no effect and ±100 for the full control effect; nearly all actives have a fitted effect of over 50% in size; luciferase read-out
Cruzain inh noDet: cruzain (T. cruzi) inhibition without detergent; P25779; purified cruzain, Z-FR-AMC fluorescence, no detergent; Potency, µM, inactives show max response, negative = inhibition, most hits filed as inhibitors; 200,000 compounds, 2.3% hits; active = well fitted curve in the direction sought with a large enough effect; inconclusive = small, poorly fitted or top-dose-only effect, or another doubt; inactive = no such curve, though single readings can be large; an effect the other way counts as inactive or inconclusive;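 also: plate controls were enzyme without inhibitor for no effect and buffer without enzyme for full effect; nearly all actives have a fitted effect of over 40% in size; top concentration of the series not given in the record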
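Detergent-free condition (0.00005% Triton X-100) in acetate buffer pH 5.5 with DTT. 1.5 nM enzyme and compound were pre-mixed 15 min, then 2 uM Z-FR-AMC substrate added; reaction progress from fluorescence change between first and third reads (60 s).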
MARV entry inh: Marburg virus entry inhibition. Marburg virus pseudotyped entry inhibition, cell reporter; control for the full effect not named in the record; about a third of the inactives were read at about 46 µM. AID 540276. Potency, µM (titrated, usually from 37.8 µM), without a hit: at the top dose activity change, negative = inhibition, most hits filed as inhibitors. 300,000 compounds, 1.8% hits; active = well fitted inhibition curve with a large enough effect; inconclusive = small, poorly fitted or top-dose-only effect, or effect the other way; inactive = flat fitted curve, though single readings scatter; tested in HEK293 cells; about a fifth of its hits are not listed in these tables; also: % is scaled to controls: 0 for no effect and ±100 for the full control effect; luciferase read-out
The depositor's hits bear a star; ? = inconclusive; nt = not tested or not shown; [ ] = dose if it differs, or a comment. Unless noted, calls follow the shape of the dose curve; as a rule, active means well fitted rising curve with a large enough effect; inconclusive means small, poorly fitted or top-dose-only effect; inactive means no such curve, though single readings can be large or run the other way. Potency is read from the fitted curve at half-maximal effect.

No.	SMILES	Cruzain inh Det	SARS PLpro yeast	2A StopGo	NS1 function inh	RE007 growth inh	Lassa entry inh	Cruzain inh noDet	MARV entry inh
1	Cc1ccc(C(=O)CNc2ccc(C)cc2C)cc1	nt	1%	-25%	-11%	-21%	-3%	nt	-30%
2	O=C(Nn1cnc2ccccc2c1=O)c1ccc(Br)cc1	nt	0%	51%[activator]	-2%	28%	?	nt	?
3	CCOc1ccccc1Oc1ccc(C(F)(F)F)cn1	3.0%	?	-21%	3%	-8%	-3%	-10%	5%
4	COCCNC(=O)CN(c1ccc(OC)c(OC)c1)S(=O)(=O)c1ccc(C)cc1	2.9%	2%	-4%	16%	-14%	-6%	8%	8%
5	COc1ccc(OC)c(NC(=O)c2cc(S(=O)(=O)NCc3ccco3)ccc2F)c1	-16%	-4%	24%	-32%	12%	-16%	-7%	?
6	CC1CCC(NC(=O)Cn2ncc3c4ccccc4n(Cc4ccc(F)cc4)c3c2=O)CC1 (stereo not given)	-3.1%	nt	5%	nt	nt	13%[46.1 µM]	-6%	1%[46.1 µM]
7	COc1ccc(CCNC(=O)COC(=O)c2cnc(Cl)c(Cl)c2)cc1	nt	-1%	-10%	nt	0%	-9%	nt	12%
8	NC(=NC(=O)c1ccc(Cl)cc1)N1N=CCC1c1ccccc1 (stereo not given)	nt	2%	?	11%	11%	?	nt	?
9	CN1CC(c2ccc(Cl)c(Cl)c2)[C@@]2(COc3ccccc3C2=O)[C@@]12C(=O)Nc1ccccc12 (stereo not given in full)	3.2%	2%	10%	-2%	-7%	?	-25%	?
10	O=C(CN1CCN(Cc2ccccc2)CC1)N/N=C/c1cccnc1	nt	0%	10%	9%	-3%	nt	nt	nt
11	COc1cc(C)nc(NCc2ccccc2)n1	-0.5%	3%	27%	3%	-7%	9%	4%	6%
12	COc1ccc(C)cc1NC(=O)c1ccc(OC(F)F)cc1	-4.6%	-7%	-1%	-5%	-22%	15%	-25%	9%
13	Cc1ccc2nc(SCC(=O)NCc3ccc(S(N)(=O)=O)cc3)[nH]c2c1	nt	5%	-5%	7%	-9%	nt	nt	nt
14	Cc1ccsc1C(=O)C1CCCN(Cc2ccccc2O)C1 (stereo not given)	nt	0%	-29%	-1%	-1%	-18%	nt	-7%[14.2 µM]
15	CN(C)CCN1C(=O)C2C(C(=O)Nc3cc(Cl)cc(Cl)c3)C3C=CC2(O3)C1C(=O)NC1CCCCC1 (stereo not given)	nt	0%	-16%	-10%	6%	-1%	nt	6%[46.1 µM]
16	CC1CCC(CC(=O)O)(C(=O)O)CC1 (stereo not given)	nt	nt	-13%	nt	-1%	1%[46.1 µM]	nt	-4%[46.1 µM]
17	Cc1nc2nc(C)n(-c3ccccc3)c2s1	-2.7%	-6%	-3%	-6%	-13%	27%	-2%	?
18	COc1cccc(OC)c1C(=O)Nc1ccc2c3c(cccc13)CC2	-0.2%	-15%	-29%	-52%	?	?	-6%	-25%
19	O=C(O)CN1C(=O)/C(=C\c2cn(CC(=O)N3CCOCC3)c3ccccc23)SC1=S	nt	0%	31%[activator]	nt	18%	12%[46.1 µM]	nt	11%[46.1 µM]
20	Cc1ccc(/C=N\NC(=O)Cc2cccn2C)o1	nt	1%	9%	nt	-6%	-3%	nt	?
21	CCCC(=O)Nc1cc2c(cc1C(C)=O)OCCO2	nt	0%	-9%	-4%	0%	nt	nt	nt
22	COCCCNC(=O)Cn1nnc(-c2ccc(NC(=O)c3ccccc3F)cc2)n1	-4.3%	12%	19%	2%	2%	-3%	-6%	17%
23	COc1ccc(C2C(C(=O)c3ccccc3)N3c4ccccc4C=CC3C2[N+](=O)[O-])cc1 (stereo not given)	nt	-1%	7%	8%	-7%	-10%	nt	-29%[46.1 µM]
24	Cc1cccc(CS(=O)(=O)c2cn(CC(=O)N3CCOCC3)c3ccccc23)c1	nt	-4%	4%	-9%	2%	-2%	nt	21%
25	Cc1cccc(COC[C@H](Cc2ccccc2)N2CCN(C(=O)c3cccc(C)c3)CCC2=O)c1	-3.8%	nt	-14%	nt	-5%	nt	22%	nt
26	Cc1cc(C)c2c(n1)sc1c(=O)n(-c3cc(Cl)ccc3C)nnc12	2.9%	nt	-18%	nt	nt	11%[46.1 µM]	7%	10%[46.1 µM]
27	CC(C)CCNC(=O)CCCOc1ccccc1	3.7%	-2%	-3%	-17%	0%	2%	0%	-28%
28	Cc1c(NC(=O)c2cccc(NC(=O)COc3ccc(C#N)cc3)c2)c(=O)n(-c2ccccc2)n1C	nt	-1%	-22%	nt	11%	5%	nt	11%[46.1 µM]
29	CCOC(=O)c1ccc(N=C2SC(C(=O)Nc3ccc(C(=O)O)cc3)CC(=O)N2Cc2cccs2)cc1 (stereo not given)	nt	0%	-21%	nt	11%	-23%[46.1 µM]	nt	?
30	Cc1nc2ccccc2nc1CN1CCN(Cc2ccc(F)c(F)c2)C(CCO)C1 (stereo not given)	nt	0%	0%	-1%	7%	-17%	nt	4%[46.1 µM]
31	O=C(COC(=O)CSc1ccc([N+](=O)[O-])cc1)NCCCc1ccccc1	nt	-4%	-3%	-27%	-19%	nt	nt	nt
32	CCC1(C)Cc2ccccc2-c2nc(SCC(N)=O)[nH]c(=O)c21 (stereo not given)	nt	-2%	-11%	-4%	6%	nt	nt	nt
33	Cc1cc(C)nc(N2CCCC(C(=O)NCC(c3ccccc3)c3ccccc3)C2)n1 (stereo not given)	-2.4%	17%	-24%	2%	9%	-9%	?	-21%
34	CCOc1ccc(CCNC(=O)C2CCN(Cc3nc(-c4ccc(OC)c(OC)c4)oc3C)CC2)cc1OCC	2.0%	nt	-21%	nt	nt	25%[46.1 µM]	-13%	?
35	Cc1cc(Br)c(NC(=O)Cn2c([N+](=O)[O-])cnc2C)cc1C	nt	0%	2%	0%	7%	29%[46.1 µM]	nt	-1%[46.1 µM]
36	C=CCn1c(C)c(C(C)=O)c(N2CCOCC2)nc1=S	3.4%	4%	-2%	2%	-13%	3%	0%	-7%[46.1 µM]
37	Cc1nc(N2CCCCC2)c2ccsc2n1	2.5%	6%	?	-7%	-9%[3.69 µM]	-14%	-6%	-5%
38	CCOc1ccc(NC(=O)CSc2nnc(CNC(=O)c3c(F)cccc3Cl)o2)cc1	-4.9%	nt	-12%	nt	nt	-16%[46.1 µM]	2%	18%[46.1 µM]
39	O=C(CSc1nnc(SCC(=O)NCc2ccc3c(c2)OCO3)s1)NCc1ccc2c(c1)OCO2	3.7%	-4%	-11%	1%	-11%	-4%	5%	25%
40	CCOc1ccc2nc3sc(C(=O)N4CCN(C)CC4)c(N)c3cc2c1	-5.8%	-5%	4%	-4%	-22%	23%	8%	-3%

The list goes on, starting with the last 2 of the part before.
No.	SMILES	Cruzain inh Det	SARS PLpro yeast	2A StopGo	NS1 function inh	RE007 growth inh	Lassa entry inh	Cruzain inh noDet	MARV entry inh
39	O=C(CSc1nnc(SCC(=O)NCc2ccc3c(c2)OCO3)s1)NCc1ccc2c(c1)OCO2	3.7%	-4%	-11%	1%	-11%	-4%	5%	25%
40	CCOc1ccc2nc3sc(C(=O)N4CCN(C)CC4)c(N)c3cc2c1	-5.8%	-5%	4%	-4%	-22%	23%	8%	-3%
41	CCN(C(=O)Cn1c(=O)oc2ccccc21)c1cccc(C(F)(F)F)c1	-2.2%	3%	-18%	4%	7%	-7%	4%	-7%
42	CCOc1ccc(N(C(=O)CNC(=O)c2ccco2)C(C(=O)NC2CCCC2)c2cccnc2)cc1 (stereo not given)	nt	1%	-5%	-12%	1%	22%[46.1 µM]	nt	-2%[46.1 µM]
43	Cc1ccc(NC(=O)c2oc3ccc4c(c3c2C)C(=O)CC(C)(C)O4)c(C)c1	0.6%	nt	25%	nt	nt	?	-10%	nt
44	Cc1ccc(C(=O)NCc2ccc(Cl)cc2)cc1S(=O)(=O)N1CCCCC1	nt	-1%	?	nt	30%	-7%	nt	-19%
45	N#CC1(NC(=O)COc2ccccc2[N+](=O)[O-])CCCCC1	nt	-4%	-3%	nt	-1%	1%	nt	6%[46.1 µM]
46	CCCCNC(=O)c1ccccc1NC(=O)CCC	nt	0%	-20%	-2%	1%	1%	nt	11%
47	CCNC(=O)CCCN1C(=O)CCn2nc(-c3cccn3C)cc21	-1.0%	nt	7%	nt	nt	26%[46.1 µM]	-6%	nt
48	Clc1ccc(Cc2ccccc2)nn1	-1.9%	0%	19%	2%	-6%	8%	8%	-1%
49	O=C(CN1C(=O)COc2ccccc21)NNC(=O)Nc1ccccc1F	nt	14%	1%	-13%	1%	-2%[46.1 µM]	nt	-3%[46.1 µM]
50	O=C(NNC1=NS(=O)(=O)c2ccccc21)c1cccc([N+](=O)[O-])c1	nt	4%	7%	2%	-3%	nt	nt	nt
51	CC(=NNC(=O)c1ccncc1)c1ccc(Cl)c(Cl)c1	nt	nt	16%	nt	0%	0%[46.1 µM]	nt	?
52	COc1cc(CCCN2C(=O)C(=O)NC[C@@H]2c2ccccc2)cc(OC)c1OC	nt	-1%	-17%	-1%	10%	nt	nt	nt
53	Cc1n[nH]c(C)c1SCC(=O)Nc1ccc(F)cc1	1.0%	-1%	11%	8%	23%	9%	8%	20%
54	CCOC(=O)/C(C#N)=C/c1ccc(OC)c(OC)c1	-1.9%	-4%	-7%	4%	-20%	11%	8%	10%
55	Nc1nc(Nc2ccccc2)nc2ccccc12	?	-17%	-43%	-34%	?	?	25µM*	?
